VACV Venus inh: vaccinia inhibition (Venus reporter) | Potency, µM (series often up to 36.5 µM), for the others: at the top dose activity change, negative = inhibition, actives largely listed as inhibitors | Vaccinia virus Venus reporter expression, fluorescence | AID 720580 | 0.46% of 330,000 active; active means well fitted inhibition curve with a large enough effect; inconclusive means small, poorly fitted or top-dose-only effect; inactive means no such curve, though single readings can be large or run the other way; tested in A549 cells; note: nearly all actives have a fitted effect of over 30% in size; inactives centre near -10
VACV mCherry inh: inhibitors of vaccinia virus infection (mCherry reporter signal); Vaccinia virus mCherry reporter infection, fluorescence; about a quarter of the inactives have no number; Potency, µM (series often up to 36.5 µM), for inactives: top-dose activity change, negative = inhibition, usual class: inhibitors; 0.63% of 310,000 active; AID 720579; active = well fitted inhibition curve with a large enough effect; inconclusive = small, poorly fitted or top-dose-only effect; inactive = no such curve, though single readings can be large or run the other way; tested in A549 cells; note: nearly all actives have a fitted effect of over 35% in size; inactives centre near -10
* marks the source's active call; other numbers are inactive results; i = inactive; ? = inconclusive; . = not tested or not shown; [ ] = another dose, or the depositor's remark. % is set by controls: 0 for no effect and ±100 for the full control effect; potency is the fitted concentration of half-maximal effect.

SMILES | VACV Venus inh | VACV mCherry inh
O=C(Nc1ccc2oc(-c3cccc(Cl)c3Cl)nc2c1)c1cccc(Br)c1 | ? | ?
Cc1ccc(CNS(=O)(=O)NCc2cccs2)cc1 | -5.5% | -5.0%
O=C(CCN1CCCCO1)N1CCCC(Nc2ccc(F)c(F)c2)C1 (centres undefined) | -2.4% | -14.0%
CCOC(=O)C1=CN(Cc2cccc(Br)c2)S(=O)(=O)N(C)C1C (centres undefined) | ? | -16.4%
O=S(=O)(c1ccc(Cl)cc1Cl)n1ccnc1 | -4.5% | -10.4%
O=C1C=CC(=O)N1 | -6.8% | i
CN(C)S(=O)(=O)c1cccc(NC(=O)COC(=O)c2cccnc2Cl)c1 | 0.0% | -0.7%
CC(=O)NC1C(=O)N(CCc2ccccc2)c2ccc(Br)cc21 (centres undefined) | -3.0% | i
COc1ccc(-c2cc(C(=O)OCc3ccccn3)c3ccccc3n2)cc1 | -19.3% | i
CCCCCC(=O)Nc1cccc(C2=NOC3(C2)C[C@@H](C(N)=O)N(C(=O)c2ccc(OC)cc2)C3)c1 (some centres undefined) | -28.2% | i
COc1ccc(Cn2c(C)c(C)c(C#N)c2NC(=O)Nc2ccc(F)cc2)cc1 | -7.6% | -18.6%
CCC(=O)CC(c1ccc([N+](=O)[O-])cc1)c1c(O)c2ccccc2oc1=O (centres undefined) | -4.5% | -11.7%
CCOc1ccc(/C=C(\C#N)C(=O)Nc2sc3c(c2C(=O)OC)CCC3)cc1OC | 7.7% | -7.6%
Cc1ccc(-c2ccc(=O)n(CC(=O)NCC3COCCO3)n2)cc1 (centres undefined) | -1.3% | -5.8%
CC(C)c1ccc(S(=O)(=O)N2CCN(C(=O)CN3C(=O)NC4(CCCC4)C3=O)CC2)cc1 | -5.9% | -1.4%
Cc1c(C2C(C#N)=C(N)N(c3ccccc3C#N)C3=C2C(=O)CCC3)cnn1C (centres undefined) | -4.4% | -2.9%
Cc1cccc(C)c1NC(=O)CN(C)C(=O)c1ccc(-n2cncn2)c([N+](=O)[O-])c1 | -6.3% | -13.8%
COc1cccc(CNc2nc3cc(-c4ccc(F)cc4)sc3c(=O)n2C)c1 | -7.8% | 8.9%
COc1ccc(NC(=O)CCNS(=O)(=O)c2ccc(Br)s2)cc1 | -9.3% | -19.3%
COc1ccccc1CNc1ncnc2onc(-c3ccc(F)cc3)c12 | -10.3% | -18.9%
Cn1c(N)c(C(=O)COC(=O)C2CCCCC2)c(=O)n(C)c1=O | -5.4% | i
Cc1ccc(C)n1NC(=O)c1ccccc1[N+](=O)[O-] | -11.3% | ?
Cc1cc2c(cc1C)-n1nnnc1C(N1CCN(CC(=O)NC(C)C)CC1)C(=O)N2 (centres undefined) | -7.1% | -10.8%
COc1cc(/C=c2\sc3nc(=O)c(-c4ccccc4)nn3c2=O)ccc1OCCC(C)C | 0.4% | -10.0%
COc1ccc(S(=O)(=O)N/N=C(/C)c2ccncc2)cc1 | 4.6% | -1.8%
SMILES | VACV Venus inh | VACV mCherry inh
COc1ccc(OC)c(-c2nc3c(C)n[nH]c(=O)c3[nH]2)c1 | ? | ?
Cc1ccc(NC(=O)Cn2nc(C)c3nn(-c4ccc(Cl)cc4)c(C)c3c2=O)cc1F | -29.5% | -3.5%
C#CCSc1nnc(-c2ccc(C)cc2)o1 | ? | 10µM*
O=C(O)CN=C1NC2(CCCCC2)Cc2ccccc21 | -6.3% | -12.5%
COCCSc1nnc(NC(=O)CSCc2ccccc2)s1 | -8.0% | -2.7%
CCc1ccccc1NS(=O)(=O)c1cc(C)ccc1OC | -17.3% | .
Cc1cc(C(=O)NCC(=O)OCC(=O)NCCc2ccccc2)ccc1[N+](=O)[O-] | -10.6% | i
CCOC(=O)N1CCN(C(=O)CNC(=O)Cn2cnc3ccccc3c2=O)CC1 | -14.2% | i
CN(C)c1nc(=Nc2cccc(Cl)c2)ss1 | -21.6% | -21.7%
CC(C)(C)C1CCc2nc(NC(=O)c3cccc(Cl)c3)sc2C1 (centres undefined) | -13.3% | -0.3%
N#CCCN(C(=O)COC(=O)C1CCN(S(=O)(=O)c2cccs2)CC1)c1ccccc1 | -9.7% | -3.3%
CCn1ncc(CNC(=O)C2(C)CC2(Br)Br)c1C (centres undefined) | -5.8% | -17.0%
Cc1nnc(-c2ccccc2)nc1N(C)C | -3.7% | -19.6%
CCCCC1CN(CCNC(=O)c2ccccn2)Cc2ccccc2O1 (centres undefined) | -0.5% | -9.8%
CCOc1ccc(N2C(=O)Nc3ccc(Br)cc3C2(O)C(=O)NC(C)C)cc1 (centres undefined) | -3.6% | i
CC1=NN(c2nc(-c3ccccc3)cs2)C(=O)C1N=Nc1ccccc1 (centres undefined) | -0.8% | i
CCN(CCCNC(=O)c1cc2c(Cl)nc3ccccc3c2s1)Cc1ccccc1 | -3.3% | -3.7%
O=C(c1ccco1)N1CCN(C(=O)c2cc(-c3ccccn3)nc3ccc(Cl)cc23)CC1 | 3.2% | 3.3%
Cc1ccc(-n2nnc3c(=O)oc4ccccc4c32)cc1 | -5.4% | .
O=C(COc1ncnc2ccccc12)Nc1ccc(Cl)c(S(=O)(=O)N2CCOCC2)c1 | -5.4% | -11.2%
CCOc1ccccc1NC(=O)c1ccc2c(Cl)c3c(nc2c1)CCCC3 | -0.8% | -11.2%
CCCCCC(=O)N/N=C(\C)c1ccc(N2CCCCC2)cc1 | -0.2% | -7.6%
CC(C)CCn1c(SCC(=O)OCn2nnc3ccccc3c2=O)nc2ccccc2c1=O | -4.7% | -0.6%
COc1cccc(-c2nnc(NC(=O)Cc3cccs3)s2)c1 | -12.8% | -7.7%
CCCCCCn1c(=O)n2n(c1=O)C[C@]1(OC(=O)Nc3c(C)noc3C)CN(S(=O)(=O)c3ccc(C)cc3)C[C@]1(O)C2 | -24.2% | i

14 structures out of the list, ordered by formula weight, descending:
SMILES | VACV Venus inh | VACV mCherry inh
CCCCCC(=O)Nc1cccc(C2=NOC3(C2)C[C@@H](C(N)=O)N(C(=O)c2ccc(OC)cc2)C3)c1 (some centres undefined) | -28.2% | i
CCOc1ccc(N2C(=O)Nc3ccc(Br)cc3C2(O)C(=O)NC(C)C)cc1 (centres undefined) | -3.6% | i
O=C(c1ccco1)N1CCN(C(=O)c2cc(-c3ccccn3)nc3ccc(Cl)cc23)CC1 | 3.2% | 3.3%
Cc1cc2c(cc1C)-n1nnnc1C(N1CCN(CC(=O)NC(C)C)CC1)C(=O)N2 (centres undefined) | -7.1% | -10.8%
Cc1cccc(C)c1NC(=O)CN(C)C(=O)c1ccc(-n2cncn2)c([N+](=O)[O-])c1 | -6.3% | -13.8%
Cc1cc(C(=O)NCC(=O)OCC(=O)NCCc2ccccc2)ccc1[N+](=O)[O-] | -10.6% | i
COc1cccc(CNc2nc3cc(-c4ccc(F)cc4)sc3c(=O)n2C)c1 | -7.8% | 8.9%
Cc1c(C2C(C#N)=C(N)N(c3ccccc3C#N)C3=C2C(=O)CCC3)cnn1C (centres undefined) | -4.4% | -2.9%
CCOc1ccccc1NC(=O)c1ccc2c(Cl)c3c(nc2c1)CCCC3 | -0.8% | -11.2%
CCCCCC(=O)N/N=C(\C)c1ccc(N2CCCCC2)cc1 | -0.2% | -7.6%
COc1ccc(S(=O)(=O)N/N=C(/C)c2ccncc2)cc1 | 4.6% | -1.8%
Cc1ccc(CNS(=O)(=O)NCc2cccs2)cc1 | -5.5% | -5.0%
Cc1nnc(-c2ccccc2)nc1N(C)C | -3.7% | -19.6%
O=C1C=CC(=O)N1 | -6.8% | i

Later entries.
SMILES | VACV Venus inh | VACV mCherry inh
CCc1ccc(NC(=O)C2CCCN(S(=O)(=O)c3ccc(F)cc3)C2)cc1 (centres undefined) | -21.3% | -14.1%
Cc1ccc(-n2nc(C)c3c(C(F)(F)F)cc(-c4cccnc4)nc32)cc1C | -9.9% | -9.7%
O=C(CCCCCNC(=O)c1ccccc1)N/N=C/c1ccco1 | -12.1% | -11.8%
COc1ccc(OC)c(NC(=O)Cn2c(=O)n(Cc3ccccc3)c(=O)c3ccccc32)c1 | -0.5% | -14.7%
CCOc1ccccc1NC(=O)CSc1nc2ccccc2nc1N1CCCC1 | 2.3% | i
O=C1CCC(C(=O)OCc2nnc(-c3ccc(Cl)cc3)o2)=NN1 | -9.2% | i
N/C(=N\OC(=O)CCn1cccc(C(F)(F)F)c1=O)c1ccc(Cl)cc1 | -11.1% | i
COc1ccc(OC)c(CN2CCCC(c3nc(-c4ccncc4)ncc3-c3ccccc3C)C2)c1 (centres undefined) | -6.8% | -4.4%
COc1cccc(NC(=O)C2(C)CCN2C(=O)Cc2cccc3ccccc23)c1 (centres undefined) | 2.3% | i
Cn1cc(/C=N/n2cnc3scc(-c4ccc(Cl)cc4)c3c2=O)c2ccccc21 | ? | -30.0%
Cc1cccc(-c2nc(CSCC(=O)NCCc3ccc(Cl)cc3)c(C)o2)c1 | -18.3% | -12.5%
COc1c(Cl)cc(-c2noc(C)c2C(=O)NCc2ccc3c(c2)OCO3)cc1Cl | 2.3% | i
CC(C)N(C(=O)[C@H]1CC(CC(=O)NCCCn2ccnc2)C(=O)N2CCc3c([nH]c4ccccc34)[C@]12C)C(C)C (some centres undefined) | 0.0% | ?
O=[N+]([O-])c1ccc(-[n+]2nc(-c3ccccc3)nn2-c2ccccc2)cc1 | -8.1% | ?
Cc1nn(C(C)C(=O)Nc2sc3c(c2C#N)CCCC3)c(C)c1[N+](=O)[O-] (centres undefined) | -12.1% | i
NC(=S)NC(=O)c1ccccc1 | -26.7% | ?
Nc1cc(N)nc(SCC(=O)Nc2ccc(Br)cc2Cl)n1 | -4.9% | -8.2%
Cc1ccc(-c2nc3ccc(Cl)cn3c2Cc2ccsc2)cc1 | -3.3% | 11.1%
COC(/C(C)=C/C=C/C(C)=C/c1coc(C)n1)C(C)C1CC(O)C2(C)OC2C=CC(C)C2CC(CC(=O)O2)CC2OC2C(=O)O1 (centres undefined) | ? | ?
COc1ccc(OC)c(NC(=O)c2ccc(Cl)cc2)c1 | -10.4% | -10.7%
CCOc1ccc(CCNC(=O)c2c(C)noc2C)cc1OCC | -0.1% | -6.6%
Cc1nc(N2CCOCC2)c2c(C)c(C(=O)Nc3ccc(C(F)(F)F)cc3)sc2n1 | ? | -30.3%
Cc1ccc(-c2nc3ncccn3c2N)cc1 | -2.0% | ?
CCN(c1ccccc1)S(=O)(=O)c1ccc(C(=O)NC2CCCCC2)cc1 | -16.4% | -6.2%
COc1ccccc1NC(=O)C(C)Sc1nnc2ccc3ccccc3n12 (centres undefined) | -10.6% | -11.8%
SMILES | VACV Venus inh | VACV mCherry inh
C/C(=C1/SC(N2CCOCC2)=NC1=O)c1ccc(Cl)cc1 | -19.5% | ?
CN(C)Cc1c(O)ccc2c(=O)c(-c3ccccc3Cl)coc12 | -3.9% | i
CCOc1ccc(C(=O)N(Cc2ccc(C(C)C)cc2)Cc2ccco2)cc1 | -10.4% | -5.7%
N=c1c(C(=O)NCc2ccc(F)cc2)cc2c(=O)n3ccccc3nc2n1Cc1cccnc1 | -12.6% | -24.6%
CS(=O)(=O)N(CC(=O)Nc1cccc([N+](=O)[O-])c1)c1ccccc1 | -10.2% | i
CC(C)N1CCC(C)(C(=O)Nc2ccc(-n3cccc3)cc2)C1 (centres undefined) | -8.6% | -19.9%
C#CCn1c(-c2cccs2)nc2ccccc21 | -11.9% | -3.9%
COc1cc(NC(=O)C(CC(C)C)NS(=O)(=O)c2ccc3c(c2)CCCC(=O)N3)cc(OC)c1 (centres undefined) | -9.4% | -5.5%
COc1ccc(C2=CC(=O)C[C@H](c3ccc(OC)cc3)C2)cc1 | -7.1% | -6.4%
CCCCC(=O)Oc1c(S(=O)(=O)c2ccc(C)cc2)c(C)nn1C(C)(C)C | -29.0% | -29.8%
Cc1cc(C)n(-c2nnc(C)n2/N=C/c2ccc(O)cc2)n1 | 3.9% | -9.6%
O=C(NC1CCCC1)C(c1ccccc1)N(C(=O)c1csnn1)c1ccccc1F (centres undefined) | 18.5% | -18.6%
CCOc1ccc(N(CC)S(=O)(=O)c2ccc3c(c2)n(C)c(=O)c(=O)n3C)cc1 | -23.6% | i
CCCCCCn1c(=O)c(Cc2ccccc2)c(O)c2ccccc21 | -10.8% | -2.2%
CCOC(=O)N1CCN(C2CC(=O)N(c3ccc(C)cc3)C2=O)CC1 (centres undefined) | -19.9% | .
CCN(CC(=O)Nc1ccccc1C(F)(F)F)C(=O)CN1C(=O)NC(C)(c2ccccc2)C1=O (centres undefined) | -12.4% | -27.1%
COc1ccc(C(=O)n2c(C)c(CCO)c(=O)n2C)cc1 | -2.3% | -3.0%
Nc1nc(SCC(=O)NCc2ccccc2)n[nH]1 | -4.3% | -10.1%[1.46 µM]
O=C(Cn1nc(-c2ccccc2)ccc1=O)Nc1ccc(NC(=O)c2ccccn2)cc1 | ? | i
C[C@H]1CN([C@@H](C)CO)C(=O)c2cc(NC(=O)C3CCCCC3)ccc2O[C@H]1CN(C)CC1CCCCC1 | -17.1% | -2.3%
CCc1cccc(NC(=O)Cn2c(=O)n(CCC(=O)NCc3ccccc3Cl)c(=O)c3sccc32)c1 | -22.3% | -24.7%
COc1cccc(/C=N/NC(=O)CSc2ccccc2C)c1OC | -14.0% | i
COc1ccc(NC(=O)COc2cccc(C(F)(F)F)c2)cn1 | -8.1% | i
O=S(=O)(NCCN1CCOCC1)c1cccs1 | -6.5% | i
CC(C)(C)CC(C)(C)NC(=O)c1ccccc1 | -12.2% | -20.1%
Cc1ccc(S(=O)(=O)N2CCN(C(=O)c3cccc(F)c3)CC2)cc1 | -7.3% | i
COc1ccc(/C=N/Nc2nc3ccccc3o2)cc1OC | -1.8% | -5.5%
COc1c(C=O)c(O)cc2c1C(=O)c1ccccc1C2=O | -12.9%[60.7 µM] | -16.5%[60.7 µM]

Compound activity (PubChem)

Outcome played no part in choosing rows; about 0.88% have a hit in one of these screens.
